KCNQ2 enhance = enhances the rat KCNQ2 potassium channel | O88943 | CHO-K1 KCNQ2, FluxOR thallium flux fluorescence; active compounds read high | B-score at 10 µM | actives 0.54% (n = 310,000) | AID 2239;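 active means fluorescence ratio B-score at least 3 SD of library B-scores, with initial fluorescence B-score within 3 SD, cut at about 5.3 in these data; same plate scores as AID 2156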;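 further: B-score of peak minus minimum over baseline fluorescence ratio after K+ and Tl+ stimulus; positive B-score means potentiation of KCNQ2 with more thallium influx and brighter signal; only the inactives scoring about 0 or higher are listed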
Target sequence (O88943 whole entry, looked up): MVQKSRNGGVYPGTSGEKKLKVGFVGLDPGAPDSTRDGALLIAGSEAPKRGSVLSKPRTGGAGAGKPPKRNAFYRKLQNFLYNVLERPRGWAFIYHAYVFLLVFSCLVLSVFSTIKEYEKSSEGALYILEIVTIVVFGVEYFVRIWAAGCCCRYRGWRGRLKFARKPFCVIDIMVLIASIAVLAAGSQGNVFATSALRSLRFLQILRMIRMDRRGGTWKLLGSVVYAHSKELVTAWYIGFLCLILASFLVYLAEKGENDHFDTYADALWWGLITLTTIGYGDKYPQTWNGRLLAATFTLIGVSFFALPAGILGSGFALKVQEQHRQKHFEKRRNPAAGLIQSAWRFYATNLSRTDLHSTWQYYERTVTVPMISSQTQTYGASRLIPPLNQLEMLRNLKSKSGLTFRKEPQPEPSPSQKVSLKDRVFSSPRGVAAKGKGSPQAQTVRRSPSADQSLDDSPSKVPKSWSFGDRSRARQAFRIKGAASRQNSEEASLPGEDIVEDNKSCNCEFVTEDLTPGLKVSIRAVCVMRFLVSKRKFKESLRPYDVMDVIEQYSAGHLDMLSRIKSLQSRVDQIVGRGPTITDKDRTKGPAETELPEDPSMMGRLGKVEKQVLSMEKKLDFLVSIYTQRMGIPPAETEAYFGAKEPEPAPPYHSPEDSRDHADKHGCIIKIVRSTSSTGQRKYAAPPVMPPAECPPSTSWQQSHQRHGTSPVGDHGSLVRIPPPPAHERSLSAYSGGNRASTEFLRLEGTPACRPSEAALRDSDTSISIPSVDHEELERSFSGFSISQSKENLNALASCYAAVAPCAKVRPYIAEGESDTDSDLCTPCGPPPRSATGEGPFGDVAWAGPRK
KCNQ2 enhance baseline = also measured in KCNQ2 enhance; calls as there; B-score; compound at 10 µM; measured here: initial fluorescence intensity artifact check;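 brightness before thallium and not channel activity; 0 = typical well and far values either way flag optical interference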
Active calls of the source: *; · = no result given. An excerpt; rates above refer to the full screens.

Start of the listing, in advance, seven compounds:
SMILES	KCNQ2 enhance	KCNQ2 enhance baseline
CC(C(=O)Nc1ccc(F)c(F)c1F)N(C)CC(=O)Nc1ccccc1Br (stereo not given)	0.01	0.24
CC(=O)N1c2ccc(Cl)cc2C2OCCC2C1c1ccco1 (stereo not given)	0.03	0.1
Cc1cc(=O)oc2cc(NC(=O)c3cc([N+](=O)[O-])ccc3N3CCOCC3)ccc12	0.27	-0.01
COc1ccc(/C=N/NC(=O)c2ccco2)cc1COc1ccc(F)cc1	0.61	0.65
Cc1onc(C(=O)N2CCN(c3ccccc3F)CC2)c1-c1ccccc1Cl	0.78	0.27
O=C(NC1CCN(Cc2ccccc2)CC1)C1CCCN(c2nnc(-n3cccc3)s2)C1 (stereo not given)	2.52	-0.8
O=c1c2c(-c3ccc([N+](=O)[O-])cc3)ccnc2[nH]n1-c1ccccc1	0.65	2.18

All compounds of this part, from the first entry:
SMILES	KCNQ2 enhance	KCNQ2 enhance baseline
CC(C(=O)Nc1ccc(F)c(F)c1F)N(C)CC(=O)Nc1ccccc1Br (stereo not given)	0.01	0.24
CC(=O)N1c2ccc(Cl)cc2C2OCCC2C1c1ccco1 (stereo not given)	0.03	0.1
Cc1cc(=O)oc2cc(NC(=O)c3cc([N+](=O)[O-])ccc3N3CCOCC3)ccc12	0.27	-0.01
COc1ccc(/C=N/NC(=O)c2ccco2)cc1COc1ccc(F)cc1	0.61	0.65
Cc1onc(C(=O)N2CCN(c3ccccc3F)CC2)c1-c1ccccc1Cl	0.78	0.27
O=C(NC1CCN(Cc2ccccc2)CC1)C1CCCN(c2nnc(-n3cccc3)s2)C1 (stereo not given)	2.52	-0.8
O=c1c2c(-c3ccc([N+](=O)[O-])cc3)ccnc2[nH]n1-c1ccccc1	0.65	2.18
Clc1cccc(OCc2nc(-c3ccncc3)no2)c1	0.96	0.82
N#Cc1cccc(CN2CCC(=O)N([C@H](CO)c3ccccc3)CC2)c1	0.57	-0.39
CC1CCN(C(=O)CCc2nnc3ccc(NCCCN4CCCC4=O)nn23)CC1	0.43	1.15
COc1ccc(NC(=S)Nc2ccccc2C(F)(F)F)cc1	0.01	1.59
CCOC(=O)c1ccc2c(c1)nc(SCC(=O)N1CCCCC1)n2CC	0.76	-0.2

Reprinted at random: 6 compounds from above, in no set order.
SMILES	KCNQ2 enhance	KCNQ2 enhance baseline
COc1ccc(NC(=S)Nc2ccccc2C(F)(F)F)cc1	0.01	1.59
CC(C(=O)Nc1ccc(F)c(F)c1F)N(C)CC(=O)Nc1ccccc1Br (stereo not given)	0.01	0.24
Cc1cc(=O)oc2cc(NC(=O)c3cc([N+](=O)[O-])ccc3N3CCOCC3)ccc12	0.27	-0.01
O=C(NC1CCN(Cc2ccccc2)CC1)C1CCCN(c2nnc(-n3cccc3)s2)C1 (stereo not given)	2.52	-0.8
CC(=O)N1c2ccc(Cl)cc2C2OCCC2C1c1ccco1 (stereo not given)	0.03	0.1
O=c1c2c(-c3ccc([N+](=O)[O-])cc3)ccnc2[nH]n1-c1ccccc1	0.65	2.18

Additional structures.
SMILES	KCNQ2 enhance	KCNQ2 enhance baseline
Cc1ccc(/C=N/NC(=S)NC2CCS(=O)(=O)C2)cc1 (stereo not given)	0.52	-0.73
CCC(C)NC(=O)CN(c1ccc2c(c1)OCO2)S(=O)(=O)c1c(C)n[nH]c1C (stereo not given)	1.37	-0.1
CCCCNC(=O)N1CCN(Cc2cccc(F)c2)CC1	0.17	-1.56
COc1ccccc1-n1cnnc1SCC(=O)Nc1nc(C)c(Cl)cc1Cl	0.09	0.42
N=C(N)SCc1ccc(O)c([N+](=O)[O-])c1	0.46	1.25
c1cnc2c(c1)ccc1cccnc12	2.4	·
CN(C(=O)COC(=O)COc1ccc2c(c1)CCC2)c1c(N)n(Cc2ccccc2)c(=O)[nH]c1=O	2.03	0.7
CCc1ccc(NC(=O)NCC2CCN(c3ccc(OC)cc3)C2)cc1 (stereo not given)	1.64	-0.14
CC(Sc1ccccc1)C(=O)N1CCN(S(=O)(=O)c2ccccc2F)CC1 (stereo not given)	0.27	-0.13
CCCc1nc2oc3c(NCc4ccccn4)ncnc3c2c2c1COC(C)(C)C2	1.96	-0.29
O=C(CSc1nc2c(cnn2-c2ccc(F)cc2)c(=O)[nH]1)N1CCCc2ccccc21	1.98	2.23
CCc1sc2nc(SCC(=O)Nc3cc(C)on3)n(-c3cccc(OC)c3)c(=O)c2c1C	0.1	-0.19
COC(=O)C1=C(C)N(c2ccc(OC)c(OC)c2)C(=O)C1	1.78	0.02
CC[C@@H](C)[C@H](NC(=O)Cc1c(C)c2c(cc(C)c3c(C)coc32)oc1=O)C(=O)O	1.24	1.47
CCCCN(C(=O)CN1C(=O)C2CCCCC2C1=O)c1c(N)n(CCCC)c(=O)[nH]c1=O (stereo not given)	1.29	3.94
COc1cc(/C=C/c2onc(C)c2[N+](=O)[O-])cc(OC)c1OC	0.02	0.3
CN(C(=O)COC(=O)c1ccc(F)c(S(=O)(=O)N2CCOCC2)c1)C1CCS(=O)(=O)C1 (stereo not given)	0.12	-1.3
Cc1nc(N2CCCCC2)sc1C(=O)c1cccc([N+](=O)[O-])c1	0.02	1.86
O=C(NCC1CCCO1)c1ccc(-c2ccccc2Cl)o1 (stereo not given)	0.03	-0.34
Cc1c(C(=O)N(C)C)sc(NC(=O)c2cc([N+](=O)[O-])cc([N+](=O)[O-])c2)c1C#N	1.75	1.19
COC(=O)CCCNC(=O)CCc1nnc(-c2ccc(-c3ccccc3)cc2)o1	0.05	2.85
Cc1ccccc1-n1c(SCC(=O)NCc2cccs2)nnc1-c1ccncc1	0.43	0.13
C/C(Cl)=C/Cn1c(SCc2ccc(Cl)cc2)nc2c1c(=O)[nH]c(=O)n2C	0.15	-0.61
Nc1ccc2c(c1)C(=O)N(CCCCCC(=O)O)C2	1.82	-0.89
O=C(COc1ccccc1)NC(=S)Nc1ccc(Br)cn1	1.28	-0.59
CC(C)(CSc1nncn1/N=C/c1ccco1)NS(=O)(=O)c1ccc(Cl)cc1	0.38	1.24
COc1ccc(NC(=O)Cc2coc3cc(C)ccc23)cc1S(=O)(=O)N1CCOCC1	0.04	0.35
CCCCCCOc1ccc(N2C(=O)CC(N3CCN(CCN=CC4=C(O)CC(C)(C)CC4=O)CC3)C2=O)cc1 (stereo not given)	0.84	-0.04
C=CCn1c(SCC(=O)Nc2ccc(C(=O)OC(C)C)cc2)nnc1-c1cccs1	0.41	0.03
OCCN1CCN(CCSc2ccccc2)CC1	0.73	-1.49
COc1ccc(CCNC(=S)Nc2ccccc2C)cc1	0.73	0.31
Cc1cc(NC(=O)c2ccc(N3C(=O)CCC3=O)cc2)no1	0.17	0.11
CN(C)NC(=O)C12CCC(C)(C(=O)O1)C2(C)C (stereo not given)	1.22	2.51
O=C(Nc1c2c(nn1-c1ccc(F)cc1)CS(=O)C2)c1ccc(Br)o1 (stereo not given)	0.96	0.91
O=C(COc1ccc(Br)cc1CNC1CCCC1)Nc1ccccc1	0.25	-2.22
COC(=O)C1=C(C)N(Cc2ccccc2)C(=NCc2cc(OC)c(OC)c(OC)c2)N[C@H]1c1ccccc1	1.15	0.79
CCSc1nc(C)c(CCOc2cccc(C)c2)c(=O)[nH]1	1.4	0.57
Clc1ccc(CNCC2CCCO2)cc1 (stereo not given)	0.42	-0.01
CCOC(=O)C1CCCN(c2c(NCCc3ccc(S(N)(=O)=O)cc3)c(=O)c2=O)C1 (stereo not given)	0.2	-1.09
COc1ccccc1CNC(=O)c1ccc(CS(=O)(=O)c2ccccc2C)o1	0.03	0.48
CCOC(=O)CSc1nc2ccccc2c(=O)n1CCN1CCOCC1	0.96	0.95
Cc1cccc(C)c1Nc1nnc(SCC(=O)NC(=O)c2cccn2C)s1	0.51	0.86
CC(C)N(CCn1cnc2c([nH]c3ccccc32)c1=O)C(C)C	0.31	1.98
CCN(CC)c1ccc(NC(=O)CSc2nc(C)cc(=O)[nH]2)cc1	2.07	1.56
CCOC(=O)c1c(NC(=O)CSc2nnc(CN3CCOCC3)n2C)sc2c1CCCC2	0.04	-0.01
O=C(NNC(=O)c1cnccn1)c1ccc(Cl)c(Cl)c1	1.02	0.34
COc1ccccc1CNS(=O)(=O)c1ccc2c(c1)CC(C)N2C(=O)C1CCC1 (stereo not given)	0.75	1.57
COC(=O)c1csc2c(C(F)(F)F)cc(N3CCN(C(=O)Nc4ccccc4)CC3)nc12	0.23	0.07
O=C(Nc1ccc(Br)cc1)c1cnccn1	0.14	1.37
COC(=O)C1(O)CC(CC(C)C)=NN1C(=O)c1ccccc1 (stereo not given)	8.84*	-0.76*
O=S(=O)(c1ccc(Br)cc1)c1nc(-c2ccccc2)oc1NCc1cccnc1	1.26	-2.79
Cc1ccc(S(=O)(=O)N/N=C2/CC(=O)CC(C)(C)C2)cc1[N+](=O)[O-]	0.96	2.18
COCCCNC(=O)CSc1nc2ccccc2c(=O)n1CCCN1CCCCC1	0.68	0.01
CN1C(=O)N(C)C2(c3ccccc3)Nn3c(s/c(=C/c4ccccc4F)c3=O)=NC12c1ccccc1 (stereo not given)	0.72	0.08
CC(=O)c1ccc(S(=O)(=O)Nc2cccc(-c3cn4c(n3)SCC4)c2)cc1	0.79	-0.08
Cc1cccc(/C=N/NC(=O)NC23CC4CC(CC(C4)C2)C3)n1	0.21	-0.89
CCOc1ccc(N(CC(=O)NC2CCC(C)CC2)S(=O)(=O)c2c(C)noc2C)cc1 (stereo not given)	0.09	1.1
O=C(NCc1ccccc1)C1=C[C@@H](c2ccc3c(c2)OCO3)C[C@@H](OCCCCO)O1	0.49	0.77
Cc1ccc(S(=O)(=O)NCCc2c[nH]c3ccccc23)cc1	0.03	0.2
O=C(Nc1ccccc1)c1[nH]ncc1[N+](=O)[O-]	0.12	0.28
Other compounds.
SMILES	KCNQ2 enhance	KCNQ2 enhance baseline
O=C(NCc1ccc2c(c1)OCO2)C12CC3CC(CC(C3)C1)C2	12.6*	-1.83*
Cc1ccc(C2=Nc3ccccc3N=C(c3ccc([N+](=O)[O-])cc3)C2)c(O)c1	0.22	0.24
Cc1ccc(CC(CC(=O)Nc2cccc(C(F)(F)F)c2)C(=O)O)cc1 (stereo not given)	0.16	0.25
Cc1c(C(=O)N2CCCC2)sc(NC(=O)c2ccco2)c1C#N	0.6	1.5
C=CCNC(=O)NC(=O)COC(=O)c1cccnc1SC	1.74	-0.29
COc1ccccc1N(CC(=O)NC1CCCCC1)C(=O)CCC(=O)Nc1nccs1	2.2	-0.65
Cc1cc(NC(=O)NC(C)(C(F)(F)F)C(F)(F)F)no1	0.05	-0.65
CCOCCCn1c(SCC(=O)N2CCOCC2)nc2ccccc2c1=O	1.4	-0.95
O=C(O)c1ccc2cccc(Cl)c2c1O	0.45	-1.53
O=C(COC(=O)c1ccccc1Cl)NC(=O)NCc1ccccc1	0.64	0
COc1ccc(-c2noc(C(=O)NCc3ccc(F)cc3)n2)cc1OC	0.17	2.19
O=c1cnn(Cc2ccc(F)cc2)c2ccccc12	0.83	-1.92
Cc1c(C(C)C)c(=O)n(-c2ccc(S(=O)(=O)NC(C)C)cc2)n1C	2.01	-1.61
CCOC(=O)c1cccc(NC(=O)COc2ccc([N+](=O)[O-])cc2)c1	1.66	-1.57
c1ccc(-c2nn3c(Cn4nnc5ccccc54)nnc3s2)cc1	0.98	-0.76
CN1CCN(c2nc(-c3ccc(C(C)(C)C)cc3)nc3ccccc23)CC1	0.21	-0.45
Cn1nnnc1SCC(=O)Nc1cc(C(C)(C)C)nn1-c1ccccc1	0.51	0.28
Cc1cc(OC(=O)c2ccc(S(=O)(=O)N(C)C)cc2)cc(=O)o1	1.15	1.17
O=C(O)C1=C[C@H](c2ccc(F)cc2)C[C@H](OCc2ccc(CO)cc2)O1	0.84	-0.67
Cc1ccccc1CN(C)C(C)C(=O)NCc1ccccc1 (stereo not given)	0.52	0.11
C/C(=N\Nc1ccc(C(F)(F)F)cc1[N+](=O)[O-])C1CC1	0.33	-0.76
COc1ccc(N(CC(=O)N2CCN(Cc3ccccc3)CC2)S(C)(=O)=O)cc1Cl	0.18	-1.28
Cc1ccc(NC(=O)c2cncc(Br)c2)cc1S(=O)(=O)N(C)C	0.32	-0.48
CC1CCC/C(=N\NS(=O)(=O)c2ccccc2)C1 (stereo not given)	0.53	-0.24
COc1ccc(Cl)cc1/C=C1/C(=O)ON=C1C	0.31	0.11
CN(Cc1ccccc1)C(=S)NC(=O)c1ccccc1	0.08	0.45
CC(C)Oc1ccc(S(=O)(=O)N2CCOCC2)cc1NC(=O)C1=COCCO1	0.61	0.01
CCOC(=O)C1=C(COC(=O)c2ccccc2[N+](=O)[O-])NC(=O)NC1C (stereo not given)	0.75	-0.37
C=CCN(c1ccccc1Cl)S(=O)(=O)c1cccc(C(=O)OCC(=O)N(C)C2CCS(=O)(=O)C2)c1 (stereo not given)	0.24	2.26
Nc1nc2ccccc2cc1-c1cccs1	2.14	0.9
O=C(COC(=O)Cc1ccsc1)NC(c1ccccc1)c1ccccc1	0.07	-0.01
Cc1nnc(SCC(=O)Nc2cccc(S(N)(=O)=O)c2)n1-c1ccccc1	1.38	-0.23
CCOc1ccc(N2CC(C(=O)NCc3ccc4c(c3)OCO4)CC2=O)cc1 (stereo not given)	0.5	-0.66
O=C(c1ccc2c(c1)OCO2)N1CCCc2ccccc21	1.8	-1.45
Cc1cccc(CSc2nc3sc(C)c(C)c3c(=O)n2Cc2ccco2)c1	0.57	-0.68
CCOC(=O)CSc1nnc(Cn2c(=O)sc3ccccc32)n1C	0.03	0.11
CN1CCN(c2ccc(NC(=O)COc3ccccc3)cc2Cl)CC1	0.66	-0.01
Cc1nc2sc(C(c3ccccc3)N3CC(C)OC(C)C3)c(O)n2n1 (stereo not given)	0.59	0.82
CCC(=O)N1CCc2cc(S(=O)(=O)CCC(=O)N3CCN(c4ccc(C(C)=O)cc4)CC3)ccc21	0.37	0.33
CCOCc1nnc(NC(=O)CCS(=O)(=O)Cc2ccccc2)s1	0.9	-2.23
Cc1ccc(-c2csc3ncn(/N=C/N(C)C)c(=O)c23)o1	0.17	-0.25
O=C(CNC(=O)c1cnccn1)Nc1ccc(F)c(F)c1F	0.09	0.8
Clc1ccc(Oc2cnns2)c(Cl)c1	1.01	0.54

High-throughput results deposited in PubChem by Johns Hopkins Ion Channel Center.
